VDR inhibitor: Inhibitors of the vitamin D receptor (VDR): qHTS | 0.93% of 400,000 active | Vitamin D3 receptor (Homo sapiens), P11473 | AID 504847, 2011 | VDR-SRC2-3 peptide fluorescence polarization, 2 h | Potency, µM, without a hit: max response, negative = inhibition, hits mostly inhibitors; active means well fitted inhibition curve with a large enough effect; inconclusive means small, poorly fitted or top-dose-only effect, or another doubt; inactive means no such curve, though single readings can be large or run the other way; further: series mostly up to about 120 µM
Target sequence (P11473 whole entry, looked up): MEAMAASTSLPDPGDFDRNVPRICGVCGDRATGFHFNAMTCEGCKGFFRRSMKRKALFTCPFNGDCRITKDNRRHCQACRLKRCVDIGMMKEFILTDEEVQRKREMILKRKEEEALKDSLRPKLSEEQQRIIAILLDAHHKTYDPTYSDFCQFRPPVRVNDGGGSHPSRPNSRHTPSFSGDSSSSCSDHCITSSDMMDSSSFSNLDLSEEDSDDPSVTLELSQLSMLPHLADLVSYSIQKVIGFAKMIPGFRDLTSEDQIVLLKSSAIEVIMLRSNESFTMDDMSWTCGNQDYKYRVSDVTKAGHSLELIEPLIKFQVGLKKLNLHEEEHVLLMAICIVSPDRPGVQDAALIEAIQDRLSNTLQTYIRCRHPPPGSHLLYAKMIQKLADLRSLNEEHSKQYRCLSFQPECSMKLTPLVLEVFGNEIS
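Fluorescence polarization assay of small-molecule disruption of VDR binding to coregulator peptide SRC2-3. Compounds and controls pin-transferred, then read after 2 h incubation at ambient room temperature.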
Active calls of the source: *; ? = inconclusive. On the % scale 0 is the no-effect control and ±100 the full control effect; potency means the concentration at half of the fitted maximal effect.

canonical_smiles,VDR inhibitor
Cc1ccccc1CNC(=O)C(=O)NCC1OCCCN1S(=O)(=O)c1cccs1 (centres undefined),-15%
Cc1ccc(/C=N/NC(=O)Cn2nc(C)c(Br)c2C)o1,-3%
CC(=O)c1ccc(N2CCN(C(=O)CS(=O)(=O)c3cccc4nsnc34)CC2)cc1,7%
CC(=O)Nc1ccc(S(=O)(=O)N(C)CC(=O)OC(C)C(=O)N(C)C2CCCCC2)cc1 (centres undefined),7%
COc1ccc(C(=O)NC2CCSc3ccccc32)cc1 (centres undefined),2%
Cc1oc(-c2ccccc2)nc1CS(=O)CC(=O)NC1CCCC1 (centres undefined),-5%
CCOC(=O)c1c(C)[nH]c(CCC(=O)NCCCN2CCN(c3ccccc3F)CC2)c1C,14%
COc1ccc(N2CCN(CCCNC(=O)CN3CCN(Cc4ccccc4C)C3=O)CC2)cc1,-5%
CC1CCCCC1NC(=O)CSc1nnc(COc2ccccc2Cl)o1 (centres undefined),-8%
COc1ccc(C2=NOC(Cn3nc(-c4ccccc4)cc3C(=O)NCc3cccc(C(F)(F)F)c3)C2)cc1 (centres undefined),-22%
[O-]/C(=C(\C(=S)Nc1ccc(SC(F)F)cc1)[n+]1ccccc1)c1ccc(Cl)cc1Cl,1%
CC(=O)Nc1cccc(OCC(=O)NC(C)c2ccc3ccccc3c2)c1 (centres undefined),1%
Cc1cc(N2CCC(C)CC2)nc2ccc(NC(=O)/C=C/c3cccc(Cl)c3)cc12,-26%
COc1ccccc1C(OC(=O)c1ccco1)C(=O)NC(C)(C)C (centres undefined),-1%
CN(C)S(=O)(=O)c1ccc(Cl)c(C(=O)NNC(=O)Cc2nc3ccccc3n2C)c1,-10%

(list continues)
canonical_smiles,VDR inhibitor
CCOC(=O)C1CCCN(CCC(=O)Nc2cc(C)cc(C)c2)C1 (centres undefined),1%
COC(=O)[C@H](CCSC)NC(=O)c1cc2c(cn1)[nH]c1ccccc12,25µM*
CCCCCOc1ccc(C(=O)N(Cc2ccccc2)C2CCS(=O)(=O)C2)cc1 (centres undefined),2%
COc1ccc(Oc2nnc(-c3ccccc3)cc2C#N)cc1,9%
COc1cccc(CNC(=O)COC(=O)c2cc(Br)c(Br)s2)c1,-1%
C[C@]12c3[nH]c4cc(-c5ccco5)ccc4c3CCN1C(=O)[C@@H](CC(=O)NCCCn1ccnc1)C[C@@H]2C(=O)N1CCOCC1,2%
O=C(c1ccco1)N1CCN(c2nc(-c3ccc(F)cc3)cs2)CC1,-1%
COC(=O)c1ccc(OCc2cc(=O)n3ccsc3n2)cc1,-12%
O=S(=O)(c1cccc(F)c1)N1CCN(c2ncnc3scc(-c4ccc(F)cc4)c23)CC1,5%
CCOc1ccc(N(CC(=O)Nc2cccc(OC)c2)S(=O)(=O)c2c(C)noc2C)cc1,-1%
COc1ccc(-n2nc(C)c3onc(C)c3c2=O)cc1,-26%
Cc1ccc2nc3c(nc2c1C)CCCC3,-2%
O=C1CC(N2CCN(C/C=C/c3ccccc3)CC2)C(=O)N1Cc1cccs1 (centres undefined),9%
COc1ccc(N(C(=O)CNC(=O)c2ccco2)C(C(=O)NCC2CCCO2)c2ccccc2)cc1OC (centres undefined),-4%
CN(C)c1ncnc2ccc(-c3cccc(NS(C)(=O)=O)c3)cc12,-17%

The list goes on.
canonical_smiles,VDR inhibitor
O=C(CSc1nc2ccccc2[nH]1)N1CCCCC1,9%
CSc1nc(N)nc(-c2cccs2)c1C#N,6%
O=S(=O)(NCc1ccc(F)cc1)c1cc(Br)ccc1Br,-9%
O=c1[nH]cnc2c1sc1nc3c(c(-c4ccc(Cl)cc4)c12)CCC3,-10%
Cc1ccc(N(Cc2ccco2)C(=O)c2cccc(S(=O)(=O)N(C)C)c2)cc1,-18%
O=S(=O)(c1ccccc1C(F)(F)F)N1CCN(c2nc(-c3cccs3)nc3ccccc23)CC1,2%
COc1ccccc1CNC(=O)CSc1ncc(C(=O)Nc2ccccc2)c(=O)n1C,-7%
COc1cccc(C(=O)n2nc(-c3ccco3)nc2NCc2cccs2)c1,4%
COc1ccc(C)cc1-n1nnnc1SCc1nc2ccccc2c(=O)[nH]1,?
CCOC(=O)CCCSc1nc2sc3c(c2c(=O)[nH]1)CCC3,-7%
CCCCNC(=O)NNC(=O)c1ccoc1C,15%
CC(C)C(NS(=O)(=O)c1ccc2c(c1)oc(=O)n2C)C(=O)NCCc1ccc(Cl)cc1 (centres undefined),0%
CN(c1ccc(Br)cc1)S(=O)(=O)c1ccc2[nH]cc(C(=O)NCCN3CCOCC3)c(=O)c2c1,-3%
CN(C)S(=O)(=O)N1CCN(CC(=O)Nc2ccc(Br)cc2)CC1,-7%
CCN(C(=O)Cc1cccs1)c1nnc(-c2cc(OC)c(OC)c(OC)c2)s1,9%

(continued)
canonical_smiles,VDR inhibitor
CC(=O)N1CCc2c(sc3c2c(=O)n(-c2ccccc2Cl)c(=O)n3Cc2cccc(C)c2)C1,5%
Cc1ccn(C(=O)c2ccc(NC(=O)C3CCCCC3)cc2)n1,22%
CN(C)S(=O)(=O)c1cc(NC(=O)c2cc(=O)c3ccccc3o2)ccc1Cl,3%
Cc1ccc(N2C(=O)C3C4C=CC(CNC(=S)Nc5ccc(F)cc5)(O4)C3C2=O)cc1 (centres undefined),-24%
COc1ccc(C(=O)NCC(=O)NCc2ccncc2)cc1,-5%
COc1cc(NC(=O)c2cc(C)no2)cc(OC)c1OC,2%
O=C(CN1C(=O)NC2(CCSC2)C1=O)N1CCN(c2ccc(F)cc2)CC1 (centres undefined),3%
O=C(COC(=O)c1cc([N+](=O)[O-])ccc1N1CCOCC1)Nc1ccccc1OC(F)F,-3%
O=C(CSc1nnc(C2CC2)n1CC1CCCO1)Nc1ccc(Cl)cc1 (centres undefined),20%
NC(=O)CC1SC(N)=NC1=O (centres undefined),-10%
Nc1cc(OC(=O)c2cccs2)nn1S(=O)(=O)c1ccccc1,-11%
COc1cccc(C(=O)Nc2ccc(N3CCN(S(C)(=O)=O)CC3)cc2)c1,-10%
Cc1ccc(N2C(=O)c3ccccc3C2Nc2ccc(S(=O)(=O)N3CCOCC3)cc2)nc1 (centres undefined),2%
COc1ccc(NC(=O)CSc2nc3c(c(=O)n2-c2ccccc2OC)SCC3)cc1,-3%
O=S(=O)(Cc1ccccc1)Nc1ccc(S(=O)(=O)NCC2CCCO2)cc1 (centres undefined),0%

Other structures.
canonical_smiles,VDR inhibitor
CCOc1ccc(NC(=O)NCc2ccco2)cc1,23%
Cc1cc(C)nc(SC(C)CNS(=O)(=O)c2ccccc2)n1 (centres undefined),4%
CCn1c(=O)c(CCC(=O)NCCN2CCOCC2)c(C)c2c(C)nn(-c3cccc(C)c3)c21,-11%
O=C(CN1C(=O)COc2ccc(Cl)cc21)Nc1cccc(C(=O)O)c1,24%
Cc1cccc(C(=O)NC2CC3CCCC(C2)N3Cc2ccccc2)c1 (centres undefined),0%
O=C(CSCc1ccc(Cl)c(Cl)c1)Nc1c[nH]c(=O)[nH]c1=O,-16%
COc1cc(C(=O)NCc2cn3cccc(C)c3n2)cc(OC)c1OC,-10%
Cc1ccc(Oc2nn[nH]n2)cc1,-12%
O=C(COc1ccc(Br)cc1)Nc1cc(S(=O)(=O)N2CCCCC2)ccc1N1CCCCC1,-7%
Cc1ccccc1OCC(O)CN1CCN(CCN2C(=O)c3cccc4cccc(c34)C2=O)CC1 (centres undefined),8%
Cc1c(CCC(=O)O)c(=O)oc2cc3occ(-c4ccc(F)cc4)c3cc12,-9%
CCCN(CCC)C(=O)CC(c1ccccc1)c1ccco1 (centres undefined),-12%
CC(NC(=S)NNS(=O)(=O)c1ccc(C(C)(C)C)cc1)c1ccccc1 (centres undefined),-18%
COC(=O)C1=C(COc2ccccc2)NC(=O)NC1c1ccc(Cl)cc1 (centres undefined),-13%
CC(=O)C1=C(C)N=c2s/c(=C/c3ccc4c(c3)OCO4)c(=O)n2C1c1ccc(N(C)C)cc1 (centres undefined),32µM*

The listing continues.
canonical_smiles,VDR inhibitor
COC(=O)CN1C(=O)CSc2ccc(S(=O)(=O)Nc3ccc(F)c(Cl)c3)cc21,12%
COc1ccc2[nH]c(C)c(CCN(Cc3cccs3)C(=S)Nc3ccccc3)c2c1,4%
CCCn1cc(S(=O)(=O)c2ccccc2)c(=O)c2cc(F)c(N3CCN(C)CC3)cc21,15%
O=C(N/C(=C\c1ccc2c(c1)OCO2)C(=O)N1CCOCC1)c1cccs1,-1%
CCCSCCCNC(=O)Cn1c(-c2cccs2)cc2ccccc21,2%
CC1(C)CC(=O)C2=C(C1)OC(N)=C(C#N)C2c1ccc2c(c1)OCO2 (centres undefined),?
CC(C)CNC(=O)COc1ncnc2ccccc12,8%
COc1ccc(CNC(=O)c2cccc(NC3=NC4CS(=O)(=O)CC4S3)c2)cc1 (centres undefined),-1%
CC(NC(=O)Cn1cccc1C(=O)c1ccccc1)c1ccccc1 (centres undefined),-5%
O=C(COc1ccc2ccccc2c1)NC1CC(=O)N(c2ccc(F)cc2)C1 (centres undefined),12%
C[C@H](CO)N1C[C@H](C)[C@@H](CN(C)S(=O)(=O)c2cccs2)Oc2c(NC(=O)Nc3ccccc3)cccc2C1=O,13%
CCOC(=O)c1c(N)sc(C(=O)N(CC)CC)c1C,6%
CC1CC(C)CN(C(=O)c2ccccc2Nc2ccc(SC(F)F)cc2)C1 (centres undefined),-6%
O=S(=O)(c1ccccc1C(F)(F)F)N1CCN(c2ncnc3sccc23)CC1,11%
NC(=O)c1c(NC(=S)Nc2ccc(F)cc2)sc2c1CCCC2,-19%

Next part
canonical_smiles,VDR inhibitor
O=C(C1CCCC1)N1CCC(CC2CC(c3cccc(Br)c3)=NO2)(C(=O)NCC2CCCCC2)CC1 (centres undefined),13%
Cc1ccc(-n2c(=O)c3c(c4cc(C)ccc4n3C)n(CC(=O)NCC3CCCO3)c2=O)cc1 (centres undefined),3%
CCCN(CC(=O)Nc1ccccc1C)C(=O)C1CC(=O)N(c2cccc(C)c2C)C1 (centres undefined),18%
OCCNc1ncnc2c1sc1nc(N3CCOCC3)c3c(c12)CCC3,-1%
O=C(NC(=S)NC1CCSC1=O)c1cccc([N+](=O)[O-])c1 (centres undefined),-8%
CC(C)CN1C(=O)C(=O)N(CC(=O)NCc2ccc3c(c2)OCO3)C1=O,0%
CCCN1CCN(CCCNC(=O)C2CCN(c3nnc(-n4c(C)ccc4C)s3)CC2)CC1,19%
CCc1cccc(-n2c(=O)c3cccnc3n2CC(=O)NCc2ccc(C)cc2)c1,6%
Cc1nnc(N2CCC(C(=O)NCCC(C)C)CC2)c2nn(-c3ccc(Cl)cc3)c(C)c12,21%
Cc1cccc(-n2cnc3cc(C(=O)N4CCCCC4)ccc32)c1,-6%
O=C(CNC(=O)c1sc2ccccc2c1Cl)NCc1cccnc1,17%
CCOC(=O)CNC(=O)c1cc2c(=O)n(CC)c3ccccc3c2s1,6%
CC1CCc2c(nc3ncnn3c2N2CCN(c3ccccc3)CC2)C1 (centres undefined),7%
COc1ccccc1C(=O)Nc1cc2ccccc2oc1=O,10%
O=C1c2ccccc2S(=O)(=O)N1Cc1c(F)cccc1Cl,-2%

Other compounds.
canonical_smiles,VDR inhibitor
CCn1c(=O)c(C(=O)CN2CCN(S(=O)(=O)c3cc(C)ccc3C)CC2)c(N)n(Cc2ccccc2)c1=O,11%
CCOC(=O)CN(C(=O)CSc1nnc(CNc2ccc(F)cc2)n1CC)c1ccc(F)cc1,-1%
Cc1ccc(-n2nc(C)c(NC(=O)COC(=O)c3ccccc3NCCO)c2C)cc1,5%
Cn1cc(CN2CC3C[C@@H]4CC2C[C@H](C3)C4)c(-c2ccc3c(c2)OCCO3)n1,-4%
O=C(CSc1n[nH]c(-c2ccccc2)n1)Nc1ccc(F)cc1F,-2%

Ordered by molar mass (ascending): three of the compounds above
canonical_smiles,VDR inhibitor
O=C(CSc1n[nH]c(-c2ccccc2)n1)Nc1ccc(F)cc1F,-2%
Cn1cc(CN2CC3C[C@@H]4CC2C[C@H](C3)C4)c(-c2ccc3c(c2)OCCO3)n1,-4%
Cc1ccc(-n2nc(C)c(NC(=O)COC(=O)c3ccccc3NCCO)c2C)cc1,5%

Compounds shown so far that have a furan ring, fused or not, in the order listed:
canonical_smiles,VDR inhibitor
Cc1ccc(/C=N/NC(=O)Cn2nc(C)c(Br)c2C)o1,-3%
COc1ccccc1C(OC(=O)c1ccco1)C(=O)NC(C)(C)C (centres undefined),-1%
C[C@]12c3[nH]c4cc(-c5ccco5)ccc4c3CCN1C(=O)[C@@H](CC(=O)NCCCn1ccnc1)C[C@@H]2C(=O)N1CCOCC1,2%
O=C(c1ccco1)N1CCN(c2nc(-c3ccc(F)cc3)cs2)CC1,-1%
COc1ccc(N(C(=O)CNC(=O)c2ccco2)C(C(=O)NCC2CCCO2)c2ccccc2)cc1OC (centres undefined),-4%
Cc1ccc(N(Cc2ccco2)C(=O)c2cccc(S(=O)(=O)N(C)C)c2)cc1,-18%
COc1cccc(C(=O)n2nc(-c3ccco3)nc2NCc2cccs2)c1,4%
CCCCNC(=O)NNC(=O)c1ccoc1C,15%
CCOc1ccc(NC(=O)NCc2ccco2)cc1,23%
Cc1c(CCC(=O)O)c(=O)oc2cc3occ(-c4ccc(F)cc4)c3cc12,-9%
CCCN(CCC)C(=O)CC(c1ccccc1)c1ccco1 (centres undefined),-12%

Assay outcomes from PubChem BioAssay.

Some of the compounds tested; count on the stated rates, not on these rows.
